Bfl-1 A1 inh: inhibitors of the anti-apoptotic protein A1, read as caspase activation; MEF A1-2A-BIM cells, Caspase-Glo 3/7 luminescence, 3 h; percent of clofoctol response, vehicle zero; AID 2462; actives 0.066% (n = 330,000); caspase activation, % (test concentration not listed);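 active = over half of replicate activation scores above 10%, or exactly half above 10 with the replicate mean above 10; inconclusive = replicate mean below 10 yet half the replicates above 10; inactive = over half of replicates below 10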;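 note: wells of about 30 µL received 50 nL stock; many hits fall short of the cut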
FGF22 binding: FGF22 (human) thermal shift binding. Q9HCT0. recombinant FGF22 thermal shift, SYPRO orange fluorescence; percent of sucrose octasulfate shift, DMSO zero. calls only at 9.99 µM. actives 1.5% (n = 340,000). AID 651658;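 active = melting point raised past a set limit in the mean and every replicate; inconclusive = no clear call; three in four hits are not shown here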
Ecoli growth: inhibitors of Escherichia coli growth. OD600, 23 h; hits give low values. OD600 absorbance (test concentration not listed). actives 0.21% (n = 330,000);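 active = OD600 absorbance below the run mean of sample wells minus 3.6 SD, in any replicate, cut at about 0.56 in these data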;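 note: stock transfer was 300 nL into about 60 µL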
AF4-AF9 inh: blocks AF4 peptide binding to human AF9. inhibition, % at 10 µM. actives 0.47% (n = 350,000). P42568. AID 651704. AlphaScreen, biotin-AF4 peptide binding to FLAG-AF9;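 active = every replicate reaching a set inhibition limit, whatever the replicate mean, cut at about 25% in these data; inconclusive = mean inhibition reaches that limit but some replicates miss it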;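 note: 0% = plate neutral control median and 100% = total signal loss; the record names both 10 and 1 µM as test concentration; the first replicate is given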
Target sequence (P42568 whole entry, looked up): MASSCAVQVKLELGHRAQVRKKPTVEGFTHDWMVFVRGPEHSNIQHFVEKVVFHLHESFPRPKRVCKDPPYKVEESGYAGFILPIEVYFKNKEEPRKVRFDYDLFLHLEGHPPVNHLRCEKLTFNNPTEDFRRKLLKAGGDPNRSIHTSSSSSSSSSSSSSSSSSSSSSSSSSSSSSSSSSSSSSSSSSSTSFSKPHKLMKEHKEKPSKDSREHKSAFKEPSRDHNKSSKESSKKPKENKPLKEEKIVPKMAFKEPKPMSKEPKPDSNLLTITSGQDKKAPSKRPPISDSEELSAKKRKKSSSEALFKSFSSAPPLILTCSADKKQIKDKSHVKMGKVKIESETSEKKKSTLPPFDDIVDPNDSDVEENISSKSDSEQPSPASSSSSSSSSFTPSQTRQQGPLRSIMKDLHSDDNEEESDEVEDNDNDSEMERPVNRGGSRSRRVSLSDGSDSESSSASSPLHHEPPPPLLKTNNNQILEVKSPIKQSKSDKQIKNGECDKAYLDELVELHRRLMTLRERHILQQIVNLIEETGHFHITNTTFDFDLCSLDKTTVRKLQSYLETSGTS
T cruzi inh: T. cruzi replication inhibition; T. cruzi beta-gal in NIH3T3, luminescence, 90 h; inhibition, % (no concentration beside the values); actives 1.4% (n = 300,000);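 active = mean inhibition across valid replicates above about 55%, limit read from the data; inconclusive = mean below that limit but half or more replicates reach it; inactive = mean below it, under half of replicates reach it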;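 note: signal also drops with host cell toxicity which is not excluded here; 0% = plate median of DMSO wells and 100% = zero luminescence signal; higher percent means less beta-gal luminescence so fewer parasites; stock transfer was 50 nL into about 50 µL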
rRNA inh HTS: selective bacterial rRNA inhibition in E. coli. GFP signal change (wild-type ribosome), % (no concentration beside the values). E. coli WT GFP vs humanized-ribosome RFP mutants, fluorescence, 24 h; hits give low values; DMSO median 0, no signal -100. actives 1.6% (n = 350,000). AID 720706;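 active = significant combined selectivity score with lowered wild-type GFP, culture density cut under 30%, mutant RFP and density less affected; inactive = any of these conditions unmet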; note: one replicate is shown; some compounds called inactive have numbers as strong as hits
Beta apoptosis: blocks beta cell apoptosis | protection from apoptosis, % (test concentration not listed) | actives 0.8% (n = 300,000) | AID 435005 | INS-1E cytokine-induced death, ATP luminescence, 48 h; percent of positive-control rescue, neutral wells zero;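 active = all replicates at 75% or more, or half of them and the mean; inconclusive = half reach 75% but not the mean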;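 note: 0% = cytokine-treated negative control wells and 100% = positive control rescue; higher means more ATP so stronger rescue from cytokine killing; wells of about 40 µL received 100 nL stock; the first replicate is given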
UCH37 inh: blocks the human deubiquitinase UCH37; inhibition, % (concentration not given with the values); AID 588478; actives 0.33% (n = 330,000); purified proteasome/UCH37, Ub-AMC cleavage fluorescence;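 active = mean of two replicates above 20%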;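 note: 0% = compound-free wells with enzyme and 100% = wells lacking proteasome; stock transfer was 100 nL into about 20 µL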
Target sequence (Q9Y5K5 whole entry, looked up): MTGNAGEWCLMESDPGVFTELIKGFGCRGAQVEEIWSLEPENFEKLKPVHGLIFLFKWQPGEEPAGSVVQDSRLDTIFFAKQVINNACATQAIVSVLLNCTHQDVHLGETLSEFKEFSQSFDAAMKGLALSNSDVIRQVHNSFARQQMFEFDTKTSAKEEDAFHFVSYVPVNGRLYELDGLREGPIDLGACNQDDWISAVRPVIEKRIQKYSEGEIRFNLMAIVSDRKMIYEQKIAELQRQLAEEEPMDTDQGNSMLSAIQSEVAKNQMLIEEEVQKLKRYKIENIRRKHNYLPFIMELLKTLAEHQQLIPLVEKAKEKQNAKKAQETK
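Material: Human UCH37 enzyme supplied as purified proteasome complex | Schedule: 30 min compound-proteasome preincubation then 25 min substrate reaction, room temperature | Detection: AMC fluorescence from Ub-AMC cleavage, excitation 355 nm, emission 460 nm | Benchmarks: Wells without proteasome as full block, compound-free enzyme plus substrate as uninhibited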
rRNA inh HTS OD600: further read-out of rRNA inh HTS, marked with its call; OD600 change, %; measured here: OD600 growth;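 optical density of the mix in the first replicate; 0 = DMSO median and -100 = no signal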
rRNA inh HTS RFP: recorded beside rRNA inh HTS, whose call it bears; RFP signal change, %; measured here: RFP humanized mutant strains;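 first replicate; 0 = DMSO median and -100 = no signal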
Numbers without * were called inactive; i = inactive; ? = inconclusive; / = not tested or not shown; & = joins results of further samples. These rows are one share of the data; rates above refer to the full screens.

SMILES	Bfl-1 A1 inh	FGF22 binding	Ecoli growth	AF4-AF9 inh	T cruzi inh	rRNA inh HTS	rRNA inh HTS OD600	rRNA inh HTS RFP	Beta apoptosis	UCH37 inh
CN(C)[C@@H]1C(=O)C(C(N)=O)=C(O)[C@@]2(O)C(=O)C3=C(O)c4c(O)cccc4[C@@](C)(O)C3[C@H](O)C12 (stereo partly specified)	-0.4&2.0	i	/	-8.1	-17.2	-18.9	-2.6	5.0	-0.7&0.3	-7.1
CN1CC=C2C(C#N)=C(N)C(C#N)(C#N)C(c3ccncc3)C2C1 (stereo unspecified)	-0.1	/	0.789	/	-2.9	/	/	/	-0.6	-103.3
OCC#CC[N+]1(CC#Cc2ccccc2)CCCC1	0.6	i	0.691	2.3	-19.3	1.2	-0.3	0.9	-1.1	0.7
CC(C)CN1CCN(Cc2cccc3c2OCO3)CC1CCO (stereo unspecified)	-0.2	i	0.716	-0.2	-10.1	-3.0	4.2	-3.7	-0.8	2.5
CN(CCc1nnc(N)s1)[N+](=O)[O-]	-0.5	i	0.702	-2.9	-0.3	-2.8	0.0	-1.6	-3.1	2.9
COC(=O)C1=C(c2cc3ccccc3o2)C[C@@H]2CC[C@H]1N2C(=O)N1CCC(C)CC1	-0.6	i	/	15.7	30.5	-12.2	-22.4	7.5	-3.0	2.2
COc1cc(C)c(CN2CCN(c3ccccc3)CC2)cc1C	-0.2	/	0.669	/	5.6	/	/	/	0.0	-0.7
COCCOC(=O)C1=C(N)OC(C)=C(C(=O)OC)C12C(=O)Nc1ccccc12 (stereo unspecified)	1.1	/	0.676	-22.3	-8.4	0.4	-2.3	0.5	-3.2	2.3
CCNc1cc(N2CCN(C)CC2)ccc1[N+](=O)[O-]	0.4	i	0.655	1.0	36.6	-12.2	-4.7	-0.7	1.6	11.6
COC(=O)C1=C(c2ccccc2)C[C@@H]2CC[C@H]1N2C(=O)NCc1ccccc1	-0.5	/	/	/	8.6	/	/	/	-0.4	0.1
COC(=O)C1=C(c2ccc(OC)c(OC)c2)C[C@@H]2CC[C@H]1N2C(=O)NC1Cc2ccccc2C1	0.4	i	/	1.5	/	-6.2	-15.4	-1.3	-6.2	7.0
Cc1ccc(C(=O)N[C@@H](C)CN2C3=NC[C@H](Cc4ccccc4)N3C[C@H]2Cc2ccc(O)cc2)cc1Br	0.1	/	/	/	9.7	/	/	/	0.9	-0.7

Not a retest: entries from further up.
SMILES	Bfl-1 A1 inh	FGF22 binding	Ecoli growth	AF4-AF9 inh	T cruzi inh	rRNA inh HTS	rRNA inh HTS OD600	rRNA inh HTS RFP	Beta apoptosis	UCH37 inh
OCC#CC[N+]1(CC#Cc2ccccc2)CCCC1	0.6	i	0.691	2.3	-19.3	1.2	-0.3	0.9	-1.1	0.7
CC(C)CN1CCN(Cc2cccc3c2OCO3)CC1CCO (stereo unspecified)	-0.2	i	0.716	-0.2	-10.1	-3.0	4.2	-3.7	-0.8	2.5

(list continues)
SMILES	Bfl-1 A1 inh	FGF22 binding	Ecoli growth	AF4-AF9 inh	T cruzi inh	rRNA inh HTS	rRNA inh HTS OD600	rRNA inh HTS RFP	Beta apoptosis	UCH37 inh
CCC1(CCCC(=O)c2ccc(F)cc2)C(=O)NC(=S)NC1=O	-2.5	i	0.638	-3.4	-4.3	-4.8	-7.4	-5.2	/	1.1
CCC(C)n1c(O)c(/C=N/Nc2nc3c(c(=O)n(C)c(=O)n3C)n2C)c(=O)[nH]c1=S (stereo unspecified)	-3.1	i	0.662	5.5	-15.9	/	/	/	-1.3	21.4*
Cn1cc(C(=O)c2ccccc2)c2ccccc21	0.3	i	0.665	3.2	-3.6	-5.9	-14.3	-6.3	-4.0	8.4
CC(C)[C@H]1C(=O)O[C@H](C(C)C)C(=O)N(C)[C@@H](C(C)C)C(=O)O[C@H](C(C)C)C(=O)N(C)[C@@H](C(C)C)C(=O)O[C@H](C(C)C)C(=O)N1C	-0.2	/	0.795	/	55.2*	/	/	/	109.0*	5.8
CN1C(=O)/C(=C/c2ccc(N3CCCCCC3)o2)C(=O)NC1=S	-4.4	/	0.719	/	6.8	/	/	/	7.0	17.6
COC(=O)C1=C(c2ccc(F)cc2F)C[C@@H]2CC[C@H]1N2C(=O)NCc1ccc2c(c1)OCO2	-0.1	i	/	-1.5	/	1.7	0.0	16.4	-6.3	2.3
Cc1cc(OCC(=O)N2CCC(C(=O)O)CC2)c2c3c(c(=O)oc2c1)CCCC3	0.0	i	0.703	1.4	6.2	/	/	/	/	-83.8
CCN(CC)C(=O)c1ccc(NC(=O)Nc2ccccc2F)cc1	-7.7	i	0.658	-0.2	-1.8	5.1	-7.5	-0.3	67.9	0.5
O=[N+]([O-])/C(Cl)=C1\NCCN1Cc1ccc(Cl)nc1	0.4	i	0.715	-1.9	-15.0	9.6	5.0	-3.4	-8.9	9.8
CC(C)(C)C(=O)NC1CCSC1=O (stereo unspecified)	-0.9	/	0.7	-2.0	-8.1	25.2	12.3	3.2	-2.5	4.0
OC1/C(=C/c2ccccc2C(F)(F)F)N2CCC1CC2 (stereo unspecified)	-0.6	i	0.663	-2.2	6.7	7.1	11.9	-5.0	-4.6	1.4
COc1ccc2c(c1)C13CCCC[C@@H]1C(C2)N(C)CC3 (stereo partly specified)	0.5	i	/	?	-25.4	-20.6	-22.5	0.3	12.5	/

Single records, from the list above.
Record of CCC(C)n1c(O)c(/C=N/Nc2nc3c(c(=O)n(C)c(=O)n3C)n2C)c(=O)[nH]c1=S (stereo unspecified) → Bfl-1 A1 inh: -3.1; FGF22 binding: i; Ecoli growth: 0.662; AF4-AF9 inh: 5.5; T cruzi inh: -15.9; rRNA inh HTS: /; rRNA inh HTS OD600: /; rRNA inh HTS RFP: /; Beta apoptosis: -1.3; UCH37 inh: 21.4*
Record of COC(=O)C1=C(c2ccccc2)C[C@@H]2CC[C@H]1N2C(=O)NCc1ccccc1 → Bfl-1 A1 inh: -0.5; FGF22 binding: /; Ecoli growth: /; AF4-AF9 inh: /; T cruzi inh: 8.6; rRNA inh HTS: /; rRNA inh HTS OD600: /; rRNA inh HTS RFP: /; Beta apoptosis: -0.4; UCH37 inh: 0.1

Other records follow.
SMILES	Bfl-1 A1 inh	FGF22 binding	Ecoli growth	AF4-AF9 inh	T cruzi inh	rRNA inh HTS	rRNA inh HTS OD600	rRNA inh HTS RFP	Beta apoptosis	UCH37 inh
CC(C)N(CCC(C(N)=O)(c1ccccc1)c1ccccn1)C(C)C (stereo unspecified)	1.0	i	0.7&0.68	1.2&-4.3	-34.6	/	/	/	0.6	2.0&1.3
COc1ccccc1N=C1SCCCN1C	-0.1	/	0.614	/	-3.1	/	/	/	0.2	6.6
CCCCn1c(O)c(C(CC)=NCCN2CCCCC2)c(=O)[nH]c1=O	-0.3	/	0.727	/	14.7	/	/	/	5.9	3.2
CN1CCCN(C(=O)COc2cccc(C(F)(F)F)c2)CC1	-0.1	i	0.691	-0.4	5.7	6.2	5.0	-2.2	-16.4	1.5
COC(=O)C1=C(c2ccc3ccccc3c2)C[C@@H]2CC[C@H]1N2C(=O)N1CCC(C)CC1	-0.1	/	0.756	/	/	/	/	/	-4.5	-3.6
O=c1oc2ccccc2c(O)c1C(c1ccc([N+](=O)[O-])cc1)c1c(O)c2ccccc2oc1=O	/	/	0.617	-1.5	-17.4	-21.0	-42.5	1.3	/	7.1

Of the compounds above, these have an NH in an aromatic ring:
SMILES	Bfl-1 A1 inh	FGF22 binding	Ecoli growth	AF4-AF9 inh	T cruzi inh	rRNA inh HTS	rRNA inh HTS OD600	rRNA inh HTS RFP	Beta apoptosis	UCH37 inh
CCC(C)n1c(O)c(/C=N/Nc2nc3c(c(=O)n(C)c(=O)n3C)n2C)c(=O)[nH]c1=S (stereo unspecified)	-3.1	i	0.662	5.5	-15.9	/	/	/	-1.3	21.4*
CCCCn1c(O)c(C(CC)=NCCN2CCCCC2)c(=O)[nH]c1=O	-0.3	/	0.727	/	14.7	/	/	/	5.9	3.2

Bioassay records deposited in PubChem BioAssay by several laboratories.
